Screening data as filed in PubChem.
Menin-MLL FL inh – menin-MLL binding inhibition, fluorescein peptide; 290,000 tested, under 10 active; FP activity change, % at 61.4 µM; Fluorescence polarization, fluorescein-MLL peptide displacement from menin; AID 1766; inconclusive = falling polarisation curve, or a change in total fluorescence; inactive = total fluorescence flat and polarisation flat or rising; no compound was filed as active; the % refers to the polarisation; negative = inhibition;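 note: % of control where 0% means no effect; inhibitors lower the polarisation; unlabelled MLL peptide was the positive control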
PINK1 modulator – PINK1 expression modulation; PINK1 immunofluorescence, high-content cytometry, 24 h; Potency, µM (series often up to 76.6 µM), for inactives: at the top dose activation (PINK1 increase), usual class: activators; hit rate 0.2% among 410,000; AID 624263; active = well fitted activation curve with a large enough effect; inconclusive = small, poorly fitted or top-dose-only effect; inactive = flat fitted curve, though single readings scatter; cell line not stated here;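 note: potency is the fitted concentration of half-maximal effect; % of control where 0% means no effect; nearly all actives have a fitted effect of over 65% in size; a mitochondrial uncoupler was the plate control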
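Compound titrations (5 concentrations, 24 h) on a stable cell line; DMSO and CCCP controls. Endpoint: fixed-cell PINK1 immunofluorescence with mitochondrial, cell and nuclear markers, scanned by microplate cytometer.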
TRPML1 ag – agonists of human TRPML1 channel. Q9GZU1. TRPML1-expressing cells, Ca2+ dye fluorescence, FDSS; host cell line not named in the record; reference of the full effect not given here. AID 624414. hit rate 0.12% among 410,000. activation, % (concentration not given with the values); in the data active = activation above about 50%; inconclusive = about 30% to 50%; inactive = below about 30%; note: 0% is about no effect; the text of the record puts the active cut at 80%
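Calcium fluorescence on an FDSS kinetic reader gave the read-out. Tet-induced TRPML1-DL cells were plated overnight, dye-loaded (Ca8 with quencher, 45-90 min, room temperature, dark), then read 110 s after compound addition, and again 110 s after 4uM final 54-4 (EC80).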
ClpP mod – qHTS Assay for Activators of ClpP | hit rate 1.9% among 340,000 | Potency, µM (series often up to 57.5 µM), inactives show at the top dose activity change, negative = active | purified B. subtilis ClpP, FRET peptide cleavage, 20 min | AID 651965, 2013; active = well fitted falling curve with a large enough effect; inconclusive = small, poorly fitted or top-dose-only effect; inactive = no such curve, though single readings can be large or run the other way; note: potency is the fitted concentration of half-maximal effect; the source files actives as falling curves though it sought activators and does not explain the sign; nearly all actives have a fitted effect of over 65% in size; many hits overshoot -100%
Target sequence (P80244 whole entry, looked up): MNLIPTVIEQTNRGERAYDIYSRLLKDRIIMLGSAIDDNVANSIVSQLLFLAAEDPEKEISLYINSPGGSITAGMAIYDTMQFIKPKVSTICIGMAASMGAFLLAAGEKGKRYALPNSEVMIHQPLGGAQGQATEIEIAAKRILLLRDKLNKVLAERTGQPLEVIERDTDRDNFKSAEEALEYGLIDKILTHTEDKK
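ClpP 10 microg/mL final, pH 8 Tris/KCl buffer with BSA, glycerol, Tween-20; compound pinned in; FRET-FV substrate; RT 20 min; Ex320/Em430; ΔFRET vs ADEP 5.8 microM, DMSO, no enzyme.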
TRPV1 potentiator – enhances activation of the human vanilloid receptor TRPV1. hit rate 0.02% among 320,000. Q8NER1. potentiation, % at 8.33 µM. TRPV1-expressing cells, Fluo-8 calcium influx, capsaicin EC20 potentiation; host cell line not named in the record; control for the full effect not named in the record; active means potentiation above 80%; inconclusive means 30% to 80%; inactive means below 30%; note: 0% is about no effect
Target sequence (Q8NER1 whole entry, looked up): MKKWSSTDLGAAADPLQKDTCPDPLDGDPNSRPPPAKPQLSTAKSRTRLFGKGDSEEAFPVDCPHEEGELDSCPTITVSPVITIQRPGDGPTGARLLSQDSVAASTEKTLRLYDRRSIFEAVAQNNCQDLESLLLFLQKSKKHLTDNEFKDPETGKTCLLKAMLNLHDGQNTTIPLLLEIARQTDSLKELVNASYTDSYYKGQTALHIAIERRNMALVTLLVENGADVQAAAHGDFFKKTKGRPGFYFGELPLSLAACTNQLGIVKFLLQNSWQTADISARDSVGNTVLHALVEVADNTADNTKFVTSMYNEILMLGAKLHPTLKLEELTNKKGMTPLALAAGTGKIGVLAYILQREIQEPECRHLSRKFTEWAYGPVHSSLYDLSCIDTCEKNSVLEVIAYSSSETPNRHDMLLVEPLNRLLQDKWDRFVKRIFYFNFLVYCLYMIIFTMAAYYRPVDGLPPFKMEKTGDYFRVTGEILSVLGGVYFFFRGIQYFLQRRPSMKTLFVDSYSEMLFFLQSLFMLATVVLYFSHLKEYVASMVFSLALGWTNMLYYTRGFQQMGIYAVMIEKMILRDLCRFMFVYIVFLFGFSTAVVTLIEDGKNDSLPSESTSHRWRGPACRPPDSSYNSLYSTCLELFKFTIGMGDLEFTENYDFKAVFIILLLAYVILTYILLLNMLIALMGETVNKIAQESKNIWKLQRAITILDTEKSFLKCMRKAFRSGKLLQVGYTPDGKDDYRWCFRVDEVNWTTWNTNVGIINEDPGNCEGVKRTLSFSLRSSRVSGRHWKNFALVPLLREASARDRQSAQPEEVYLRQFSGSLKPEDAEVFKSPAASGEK
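Cells expressing TRPV1 were dye-loaded with Fluo-8 and read kinetically: 10 s baseline, 3 min after compound (agonist portion), then 2 min after EC20 capsaicin (allosteric enhancer portion). Calcium-bound dye fluorescence at 480/520 nm.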
TRPML1 blocker – inhibitors of human TRPML1 channel; Q9GZU1; TRPML1-inducible cells, Ca2+ dye fluorescence, FDSS; active compounds read low; inhibition of EC80 agonist-evoked calcium signal; activity change, negative = inhibition, % (concentration not given with the values); hit rate 0.02% among 390,000; AID 624415; in the data active means activity change below about -50%; inconclusive means about -30% to -50%; inactive means above about -30%;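 note: stimulus is agonist 54-4 at its EC80 concentration; % is set by controls: 0 for no effect and ±100 for the full control effect; the text of the record puts the active cut at -80%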
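Calcium fluorescence in TRPML1-DL cells induced overnight with Tet: a 110 s read after compound pin addition, then a 110 s antagonist read after challenge with 54-4 at 4 uM final (EC80).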
Sfp PPTase inh – blocks B. subtilis Sfp PPTase activity; Biochemical Sfp PPTase activity, qHTS; Potency, µM, without a hit: max response, negative = inhibition, usual class: inhibitors; hit rate 3.5% among 310,000; AID 1490; active = well fitted inhibition curve with a large enough effect; inconclusive = small, poorly fitted or top-dose-only effect, or another doubt; inactive = no such curve, though single readings can be large or run the other way;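 note: the enzyme is Sfp with the accession as filed and its product quenches rhodamine fluorescence; potency is the fitted concentration of half-maximal effect; 0% = enzyme reaction without inhibitor and -100% = no enzyme wells; top concentration of the series not given in the record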
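Fluorescence-quenching assay with 15 nM Sfp, 5 uM rhodamine-CoA and 12.5 uM BHQ-2-labelled ybbR peptide in pH 7.6 Hepes/MgCl2 buffer. Enzyme was pre-incubated with compound for 15 min at room temperature. Rate was taken from the 30-min fluorescence change (525/598 nm).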
Active calls of the source: *; [ ] = dose if it differs, or a comment.

Screening O=C1CN(c2nc(-c3cccnc3)nc3sc4c(c23)CCCC4)CCN1 returned Menin-MLL FL inh -3.3, PINK1 modulator -1.0%, TRPML1 ag 0.0, ClpP mod 3.6%, TRPV1 potentiator 2, TRPML1 blocker -5 and Sfp PPTase inh -23%.
For O=C(CSc1cc(Cl)ccc1Cl)NC1CCCc2ccccc21 (configuration not stated) the results were Menin-MLL FL inh -1.3, PINK1 modulator 5.5%, TRPML1 ag -0.1, ClpP mod -3.9%, TRPV1 potentiator 8, TRPML1 blocker 22 and Sfp PPTase inh -9%.
CN1CCN(CCCNC(=O)c2ccc3c(c2)N(Cc2ccc(F)cc2)CCS3)CC1 was read as Menin-MLL FL inh -11, PINK1 modulator 3.2%, TRPML1 ag -0.3, ClpP mod 3.9%, TRPV1 potentiator -1, TRPML1 blocker -22 and Sfp PPTase inh -16%.
Screening COc1cccc(-c2nc(SCC(=O)NC3CCCC3)c(-c3ccc(C)cc3)[nH]2)c1 returned PINK1 modulator 0.1%, TRPML1 ag 3.8, ClpP mod inconclusive and TRPML1 blocker 1.
Screening CN(C(=O)c1ccc(NC(=O)C2CCN(C(=O)OC(C)(C)C)CC2)cc1)C1CCC1 returned PINK1 modulator 1.5%, TRPML1 ag -0.9, ClpP mod 0.0% and TRPML1 blocker -7.
For O=C(NC1CCCc2c1cnn2-c1ccc(F)cc1F)c1csnn1 (configuration not stated) the results were Menin-MLL FL inh 1.6, PINK1 modulator 1.9%, TRPML1 ag -0.8, ClpP mod -0.9%, TRPV1 potentiator -15, TRPML1 blocker -8 and Sfp PPTase inh 10%.
Screening CC(=O)NCCNc1nc(-c2ccc3c(c2)OCO3)nc2ccccc12 returned Menin-MLL FL inh 1.2, PINK1 modulator 2.1% and Sfp PPTase inh 23%.
`Cc1ccc(C)c(N2CCN(C(=O)CCn3c(=S)[nH]c4cc5c(cc4c3=O)OCO5)CC2)c1` gave Menin-MLL FL inh -0.1, TRPML1 ag 0.2, ClpP mod -5.7%, TRPV1 potentiator -2, TRPML1 blocker 1 and Sfp PPTase inh 11%.
Screening Cc1cccc(C(=O)N[C@H](C(=O)Nc2ccc(C)c(S(=O)(=O)N(C)C)c2)C(C)C)c1 returned Menin-MLL FL inh -2.6, PINK1 modulator 5.0%, TRPML1 ag 1.3, ClpP mod -3.2%, TRPV1 potentiator 17, TRPML1 blocker 29 and Sfp PPTase inh 8%.
Screening c1csc(-c2cn3ccc4ccccc4c3n2)c1 returned Menin-MLL FL inh 3.2, PINK1 modulator -1.4%, TRPML1 ag 1.4, TRPV1 potentiator 9, TRPML1 blocker -8 and Sfp PPTase inh 10%.
O=C(O)Cc1nc(-c2cccnc2)sc1-c1ccc(Br)cc1 was read as Menin-MLL FL inh 7.1, PINK1 modulator 9.9%, TRPML1 ag 1.8, TRPV1 potentiator -6, TRPML1 blocker 18 and Sfp PPTase inh -8%.
O=C(CCc1ccccc1O)N/N=C/c1ccc(Sc2cccc3cccnc23)o1 was read as Menin-MLL FL inh 2.1, PINK1 modulator -3.6%, TRPML1 ag 0.2, ClpP mod -6.3%, TRPV1 potentiator 10, TRPML1 blocker 9 and Sfp PPTase inh -13%.
O=C(COC(=O)Cc1c[nH]c2ccccc12)Nc1cccc2ccccc12 was read as Menin-MLL FL inh 5.3, PINK1 modulator -0.4%, TRPML1 ag 4.7, ClpP mod -1.0%, TRPV1 potentiator 12, TRPML1 blocker -2 and Sfp PPTase inh -1%.
`CC(Sc1nnc(-c2ccccc2F)n1C)C(=O)Nc1ccc(N2CCOCC2)cc1` (configuration not stated) gave PINK1 modulator 0.3%, TRPML1 ag 0.1, ClpP mod 0.3% and TRPML1 blocker 32.
For CC(=O)Nc1sc(N/N=C\c2ccccc2F)nc1-c1cccs1 the results were Menin-MLL FL inh 1.9, PINK1 modulator 5.4%, TRPML1 ag 0.1, ClpP mod 1.5%, TRPV1 potentiator -3, TRPML1 blocker -13 and Sfp PPTase inh -30%.
For CCn1c2ccccc2c2cc(NC(=O)COC(=O)Cc3cn4ccsc4n3)ccc21 the results were Menin-MLL FL inh -0.7, PINK1 modulator -0.1%, TRPML1 ag 1.9, ClpP mod inconclusive, TRPV1 potentiator -13, TRPML1 blocker -18 and Sfp PPTase inh 2%.
`CC1CCCN(C(=O)C2(NC(=O)Nc3cccc(F)c3)CCCCC2)C1` (configuration not stated) gave Menin-MLL FL inh -4.5, PINK1 modulator 2.6%, TRPML1 ag -0.6, ClpP mod 0.2%, TRPV1 potentiator 5, TRPML1 blocker -5 and Sfp PPTase inh 24%.
Screening O=C1CC(N2CCOCC2)C(=O)N1c1ccc2c(c1)OCO2 (configuration not stated) returned Menin-MLL FL inh 2.5, PINK1 modulator 0.1%, TRPML1 ag 0.5, ClpP mod 19%, TRPV1 potentiator -3, TRPML1 blocker -16 and Sfp PPTase inh 7%.
COC1CC(NC(C)=O)C(OC(=O)c2ccccc2)C(CBr)O1 (configuration not stated) was read as PINK1 modulator 1.0%, TRPML1 ag -0.2, ClpP mod 1.4% and TRPML1 blocker -3.
For O=C(NCc1ccccc1)c1ccc(CSc2nc3cccnc3n2Cc2cccc(F)c2)cc1 the results were PINK1 modulator -1.2%, TRPML1 ag 0.4, ClpP mod 4.4% and TRPML1 blocker 22.
CSc1ccccc1C(=O)Nc1ccc(C)cc1C was read as Menin-MLL FL inh 0.5, PINK1 modulator 1.7%, TRPML1 ag 2.5, TRPV1 potentiator -13, TRPML1 blocker 4 and Sfp PPTase inh 5%.
CCCN(CCC)CCNC(=O)Cn1ncc2c([nH]c3ccc(C)cc32)c1=O was read as PINK1 modulator 1.8%, TRPML1 ag 4.9, ClpP mod -4.3% and TRPML1 blocker 22.
CC(C)C(=O)Nc1ccc2oc(=O)ccc2c1 was read as Menin-MLL FL inh 0.4, PINK1 modulator -0.5%, TRPML1 ag 0.6, ClpP mod 35µM*, TRPV1 potentiator 0, TRPML1 blocker 5 and Sfp PPTase inh 14%.
Screening Cc1cccc(OCc2nnc(SCC(=O)NCc3ccc4c(c3)OCO4)o2)c1 returned PINK1 modulator -0.1%, TRPML1 ag -0.2, ClpP mod -0.5% and TRPML1 blocker 6.
COc1ccc(N2CCN(C(=O)CSc3nnc(-c4cccnc4)n3-c3ccc(F)cc3)CC2)cc1 was read as Menin-MLL FL inh 0.3, PINK1 modulator 0.6%[38.3 µM], TRPML1 ag -0.3, ClpP mod -1.1%, TRPV1 potentiator 4, TRPML1 blocker -1 and Sfp PPTase inh 11%.
`COCCn1c(N2CCCC2)nc2c1c(=O)[nH]c(=O)n2C` gave Menin-MLL FL inh 0.8, PINK1 modulator -0.2%, TRPML1 ag 0.3, ClpP mod -0.8%, TRPV1 potentiator -16, TRPML1 blocker -11 and Sfp PPTase inh 25%.
Screening COc1ccccc1N1CCN(C2CCN(C(=O)COc3cccc(C)c3)CC2)CC1 returned Menin-MLL FL inh 4.5, PINK1 modulator 0.2%, TRPML1 ag 0.0, ClpP mod -0.7%, TRPV1 potentiator -1, TRPML1 blocker -9 and Sfp PPTase inh -25%.
Screening C[C@H]1CN([C@@H](C)CO)C(=O)c2c(c3ccccc3n2C)-c2ccccc2CO[C@H]1CN(C)C(=O)[C@@H]1CCCN1C returned PINK1 modulator 0.9%, TRPML1 ag 0.6, ClpP mod -1.8% and TRPML1 blocker 7.
`N/C(=N\N=C\c1ccnc2ccccc12)SC1CC(=O)N(c2ccc(Br)cc2)C1=O` (configuration not stated) gave Menin-MLL FL inh 0.2, PINK1 modulator 3.5%, TRPML1 ag -0.9, ClpP mod 1.1%, TRPV1 potentiator 15, TRPML1 blocker -12 and Sfp PPTase inh -29%.
For CCOc1ccc2ccccc2c1/C=N/NC(=O)c1ccncc1 the results were Menin-MLL FL inh 0.5, PINK1 modulator -1.4%, TRPML1 ag -0.7, ClpP mod -1.8%, TRPV1 potentiator -10, TRPML1 blocker -6 and Sfp PPTase inh -5%.
N#Cc1cc(C#N)c(N2CCN(c3cccc(Cl)n3)CC2)nc1N was read as Menin-MLL FL inh inconclusive, PINK1 modulator 1.9%[38.3 µM], TRPML1 ag 2.9, ClpP mod -7.2%, TRPV1 potentiator 17, TRPML1 blocker 18 and Sfp PPTase inh -2%.
Screening COc1ccc(C2=NN(CN3C(=O)C(=O)c4ccccc43)C(c3ccc(OC)cc3)C2)cc1 (configuration not stated) returned Menin-MLL FL inh 6.7, PINK1 modulator 1.7%, TRPML1 ag 1.0, ClpP mod 3.5%, TRPV1 potentiator 0, TRPML1 blocker 4 and Sfp PPTase inh -4%.
For Cc1cccc(NC(=O)COc2coc(CN3CCN(c4ccccc4)CC3)cc2=O)c1 the results were PINK1 modulator 1.4%, TRPML1 ag 1.0, ClpP mod 0.8%, TRPV1 potentiator -25 and TRPML1 blocker 3.
`Cc1ccc(NC(=O)NC(=O)c2cnccc2C(F)(F)F)c(C)c1` gave Menin-MLL FL inh 0.3, PINK1 modulator 0.7%, TRPML1 ag 0.8, TRPV1 potentiator -6, TRPML1 blocker 2 and Sfp PPTase inh 2%.
For CC(Nc1ccc(Br)cc1)C(=O)NC(=O)NC1CCCCC1 (configuration not stated) the results were PINK1 modulator 8.6%, TRPML1 ag 0.5, ClpP mod -2.5% and TRPML1 blocker 1.
Screening C[C@H](N)C(=O)NC[C@H]1O[C@@H](n2cnc3c(N)ncnc32)[C@H](O)[C@@H]1O returned PINK1 modulator 0.1%, TRPML1 ag -0.9, ClpP mod 1.7% and TRPML1 blocker -7.
Screening CN(CC12CC3CC(CC(C3)C1)C2)C(=O)c1ccco1 returned PINK1 modulator 2.5%, TRPML1 ag 2.0, ClpP mod 1.2% and TRPML1 blocker 8.
COCCN(CCOC)S(=O)(=O)c1ccc(C(=O)Nc2nc3c(s2)CCc2ccccc2-3)cc1 was read as Menin-MLL FL inh 9.8, PINK1 modulator 17%, TRPML1 ag 0.4, ClpP mod -5.3%, TRPV1 potentiator -31, TRPML1 blocker -10 and Sfp PPTase inh 8%.
`CCOCCOC(=O)COc1ccc2c(=O)c(Oc3ccc(OC)cc3)coc2c1` gave Menin-MLL FL inh -5.8, PINK1 modulator -0.7%, TRPML1 ag 0.6, ClpP mod 0.9%, TRPV1 potentiator -19, TRPML1 blocker -18 and Sfp PPTase inh -8%.

Not a hit list, and some 4.4% of all compounds hit somewhere here.
